From PubChem BioAssay
KCNQ2 enhance = enhances the rat KCNQ2 potassium channel; O88943; CHO-K1 KCNQ2, FluxOR thallium flux fluorescence; hits give high values; B-score at 10 µM; actives 0.54% (n = 310,000); AID 2239;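 active means fluorescence ratio B-score at least 3 SD of library B-scores, with initial fluorescence B-score within 3 SD, cut at about 5.3 in these data; same plate scores as AID 2156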;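 further: B-score of peak minus minimum over baseline fluorescence ratio after K+ and Tl+ stimulus; positive B-score means potentiation of KCNQ2 with more thallium influx and brighter signal; only the inactives scoring about 0 or higher are listed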
Target sequence (O88943 whole entry, looked up): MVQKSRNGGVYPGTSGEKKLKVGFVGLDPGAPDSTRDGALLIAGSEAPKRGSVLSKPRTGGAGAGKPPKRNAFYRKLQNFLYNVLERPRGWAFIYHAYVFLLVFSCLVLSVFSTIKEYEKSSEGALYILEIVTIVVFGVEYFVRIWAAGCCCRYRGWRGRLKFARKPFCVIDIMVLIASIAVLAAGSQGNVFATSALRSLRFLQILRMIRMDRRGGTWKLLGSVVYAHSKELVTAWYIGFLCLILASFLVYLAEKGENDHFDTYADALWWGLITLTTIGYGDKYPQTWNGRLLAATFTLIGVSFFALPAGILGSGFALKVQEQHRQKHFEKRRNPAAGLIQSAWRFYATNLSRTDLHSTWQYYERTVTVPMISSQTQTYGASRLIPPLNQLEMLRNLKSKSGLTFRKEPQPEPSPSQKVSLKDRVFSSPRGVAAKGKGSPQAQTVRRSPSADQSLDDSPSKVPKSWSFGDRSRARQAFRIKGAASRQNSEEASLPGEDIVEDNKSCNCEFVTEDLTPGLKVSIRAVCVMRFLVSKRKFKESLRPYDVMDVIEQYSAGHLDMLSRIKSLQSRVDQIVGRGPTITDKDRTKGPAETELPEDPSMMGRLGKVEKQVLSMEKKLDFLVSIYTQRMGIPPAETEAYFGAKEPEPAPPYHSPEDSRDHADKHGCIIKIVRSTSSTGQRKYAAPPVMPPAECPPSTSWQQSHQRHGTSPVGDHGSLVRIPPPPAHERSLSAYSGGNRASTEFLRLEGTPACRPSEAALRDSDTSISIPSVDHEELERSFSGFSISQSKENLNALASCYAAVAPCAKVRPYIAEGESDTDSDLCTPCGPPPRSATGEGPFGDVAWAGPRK
KCNQ2 enhance baseline = second read-out of KCNQ2 enhance, no call of its own (marks repeat the call); B-score; compound at 10 µM; measured here: initial fluorescence intensity artifact check;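 brightness before thallium and not channel activity; 0 = typical well and far values either way flag optical interference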
Numbers without * were called inactive; . = not tested or not shown.

SMILES	KCNQ2 enhance	KCNQ2 enhance baseline
Cc1ccc(CNC(=O)CN2CCC(C(N)=O)CC2)cc1	0.37	-2.8
O=C(N/N=C/c1cccc2ccccc12)c1ccc(CN2CCOCC2)cc1	0.27	-0.19
COc1ccccc1N1CCN(C(CNS(=O)(=O)c2cccs2)c2cccnc2)CC1 (stereo not drawn)	0.21	0.17
O=C(Nc1cccc(F)c1)/C(=C/c1ccco1)NC(=O)c1ccco1	0.33	-0.01
C/C(Cc1ccccc1)=N\NC(=O)CNC(=O)c1ccc(Cl)cc1Cl	2	-1.4
COc1ccc(C(=O)NCCCNC(=O)c2cc3ccccc3[nH]2)cc1OC	1.2	0.4
CCCCC(=O)NCCNc1nc2c(c(=O)n(C)c(=O)n2C)n1Cc1ccccc1	1.5	-0.39
COc1cc(C(=O)Nc2nnc(C)s2)cc(OC)c1OC	0.87	-0.74
CC12CCC(C(=O)N(CCCN3CCN(Cc4ccccc4)CC3)C1=O)C2(C)C (stereo not drawn)	0.72	2.4
CC1=C(C)CC(C(=O)NCc2ccccn2)C(C(=O)O)C1 (stereo not drawn)	0.72	-0.06
CSc1cc(C)nc(N(C)C(C)=O)n1	2.6	-3.5
NNc1nnnc2c1sc1nc(N3CCOCC3)c3c(c12)CCCC3	1.4	-0.31
Cc1cc(NC(=O)CCC(=O)N(c2ccccc2)C(C(=O)NC2CCCC2)c2ccccc2F)no1 (stereo not drawn)	1.7	-0.41
CCN(CC)c1ccc(NC(=O)C2=CCN(S(=O)(=O)c3ccc(F)cc3)CC2)c(C)c1	7.1*	0.66*
Fc1ccccc1-c1nc2c(s1)CCc1onc(-c3ccc(Br)cc3)c1-2	0.6	1.2
O=C(CCNS(=O)(=O)c1cccs1)NC1CCN(Cc2ccccc2)CC1	1.4	0.25
NC12CCc3c(no[n+]3[O-])C1(O)CC(c1ccccc1)=[N+]2[O-] (stereo not drawn)	1.3	-2.3
Cc1cc(NC(=O)CCC(=O)N(Cc2ccc(F)cc2)C(C(=O)NC2CCCC2)c2ccco2)no1 (stereo not drawn)	0.01	0.74
Cc1ccc(C(=O)CCC(=O)N2CCC(C(N)=O)CC2)cc1	1.3	-2.1
Cc1ccccc1C(=O)NC(=S)N(C)C1CCCCC1	1.5	0.41
Cc1cc(CSc2ccccc2)ccc1NC(=O)c1cccc([N+](=O)[O-])c1	0.98	-1.5
COc1ccccc1-n1c(SCC(=O)Nc2cccc(C)c2)nc2c(c1=O)SCC2	0.07	0.68
O=C1C(Cl)=C(NCC2CCCO2)C(=O)N1Cc1ccccc1 (stereo not drawn)	1.1	-0.99
Cc1ccc(S(=O)(=O)N2CCC(C(=O)N3CCCC(C(F)(F)F)C3)CC2)cc1C (stereo not drawn)	0.04	0
CCc1ccc(NC(=O)C(=O)NCCN2CCN(S(C)(=O)=O)CC2)cc1	0.28	0.33

Next compounds:
SMILES	KCNQ2 enhance	KCNQ2 enhance baseline
CCn1c(SCC(=O)N/N=C/c2cccs2)nc2ccccc21	0.18	-1.1
O=C(Cc1cccs1)N1CCCC(c2nc3c(nnn3Cc3cccc(Cl)c3)c(=O)[nH]2)C1 (stereo not drawn)	0.02	-0.15
COc1cc(/C=C2\C(=N)N3N=C(S(C)(=O)=O)SC3=NC2=O)ccc1OS(=O)(=O)c1ccccc1	2.3	1.8
CC(O)[C@H]1CNCCN1CCc1cc(C(F)(F)F)cc(C(F)(F)F)c1 (stereo partly drawn)	0.2	0.72
CC(C)c1ccc(NC(=O)COC(=O)[C@H](CCC(N)=O)NC(=O)c2ccc(F)cc2)cc1	0.52	0
CSCCC(NC(=O)c1ccccc1)C(=O)O (stereo not drawn)	1.5	-0.03
CC(Cc1ccccc1)NC(=O)CN1C(=O)c2ccccc2S1(=O)=O (stereo not drawn)	0.86	1.2
O=C(CN1C(=O)NC2(CCCCCC2)C1=O)NCc1ccco1	0.26	-2.2
Cc1ccc(C(C2C(=O)CC(C)(C)CC2=O)C2C(=O)CC(C)(C)CC2=O)s1	5.6*	0.59*
CC(=O)C1C(=O)c2c(cccc2[N+](=O)[O-])C1=Nc1ccc(S(N)(=O)=O)cc1 (stereo not drawn)	2.8	0.14
Cc1cc(Oc2ncccc2[N+](=O)[O-])c2cc(Cl)ccc2n1	0.14	-3.1
COCCNCC(=O)Nc1ccccc1Sc1ccccc1	0.31	-0.72
COc1cc(OC)c(C2=NOC(C(=O)Nc3cc(C)nn3-c3ccccc3)C2)cc1Cl (stereo not drawn)	1.1	-0.09
NC(=S)Nc1cccc2[nH]ccc12	0.01	-1.1
CCC(C)(C)NC(=O)CN(Cc1ccc2c(c1)OCO2)C(=O)CCC(=O)Nc1ccccn1	0.37	-0.7
C/C(=N\NC(=O)CCc1ccc(S(=O)(=O)N2CCOCC2)cc1)c1ccccc1Cl	0.65	-0.47
COC(=O)c1[nH]c2ccc(Cl)cc2c1NC(=O)CCN1CCOCC1	0.29	-0.94
COCCCN1C(=O)c2ccc(C(=O)OCC(=O)NCc3ccccc3OC)cc2C1=O	0.71	0.2
C[C@]12CCC(=O)C=C1CC[C@@H]1[C@@H]2[C@@H](O)C[C@@]2(C)[C@H]1CC[C@]2(O)C(=O)CO	0.65	-2.3
COC(=O)/C(C#N)=C/c1c(Oc2cccc(C)c2)nc2ccccn2c1=O	0.3	-0.03
COc1ccc(/C=N/NC(=O)C(=O)N2CCCC2)cc1OC	1.7	0.58
CCOC(=O)c1c(NC(=O)CSc2nnnn2C)sc(CC)c1C	0.7	0.67
CCNC(=S)N/N=C(\C)c1cccc([N+](=O)[O-])c1	0.99	1.1
O=C(Nc1cccnc1)c1cc2cc(Br)ccc2oc1=O	0.88	-0.03
COc1ccc(NC(=O)c2cccc(Cn3cc(Br)cn3)c2)cn1	0.66	-0.49

More structures
SMILES	KCNQ2 enhance	KCNQ2 enhance baseline
O=C(Nc1ccon1)c1ccccc1Cl	0.1	-0.4
CCCCNC(=O)C(c1ccc(OCC(=O)OC)c(C(=O)OC)c1)N(CCc1c[nH]c2ccccc12)C(=O)CCCCCN1C(=O)NC(c2ccc(-c3ccccc3)cc2)C(C(=O)OCc2ccccc2)=C1C (stereo not drawn)	0.38	-0.01
Fc1c(F)c(-n2nnc3ccccc32)c(F)c(F)c1Cl	0.01	-0.09
COc1ccc([N+](=O)[O-])cc1NC(=O)CSc1nc(C)cc(C)n1	0.01	-0.74
O=C(NCc1ccc(Cl)cc1)C(=O)NCC1OCCN1C(=O)c1ccc(Cl)cc1 (stereo not drawn)	0.11	-0.25
O=C(NCCC1=CCCCC1)c1ccc(F)c(S(=O)(=O)N2CCOCC2)c1	0.64	1.4
CCn1c(SCC(=O)NCC2CCCO2)nnc1-c1ccc(Cl)cc1 (stereo not drawn)	0.25	-1.8
CC(Cc1ccccc1)C(=O)NCCO (stereo not drawn)	0.65	0.35
Nc1ccc(C(=O)OCC(=O)NC2CCS(=O)(=O)C2)cc1[N+](=O)[O-] (stereo not drawn)	1	0.23
NC(=O)c1sc(-c2ccsc2)cc1NS(=O)(=O)c1ccc(C(F)(F)F)cc1	0.02	-1.5
CC(=O)N(C)c1nnc(-c2ccccn2)s1	0.13	-0.19
CC(C)(C)NC(=O)CC(c1ccccc1)c1ccccc1O (stereo not drawn)	0.71	0.95
Cc1cccc(NC(=O)CSc2ccc(-c3ccco3)nn2)c1	2	-0.41
COc1cccc(/C=N/Nc2nc3ccccc3n3cnnc23)c1O	2	-0.24
CC(=O)c1ccc(N2CCN(S(=O)(=O)c3cccc4nonc34)CC2)cc1	0.12	3.5
COC(=O)c1cn(NC(=O)c2ccc([N+](=O)[O-])cc2Cl)c(=O)c2ccccc12	0.65	1.2
FC(F)(F)c1nc2ccccc2[nH]1	1.1	0.05
CC(C)OC(=O)c1ccc(NC(=O)c2ccccc2)cc1	0.03	-0.02
O=C(CSc1ncccc1C(=O)O)c1ccccc1	0.17	1.2
COc1c(C)cccc1C(=O)NCc1ccc2c(c1)OCO2	0.75	-0.42
Cc1ccc(N2CC(C(=O)Nc3ccccc3C(=O)N3CCOCC3)CC2=O)cc1 (stereo not drawn)	0.48	-0.88
Cc1ccc(OCc2nnc(SCC(=O)CC(=O)Nc3ccccc3)o2)cc1	0.47	0.24
Cc1c(/C=N/n2cnnc2)c2ccccc2n1C	1.2	-0.48
Nc1ccc(C(=O)O)c(O)c1	2.5	.
CN1C(=O)c2cccc(NCCCCCCN3C(=O)c4ccccc4C3=O)c2C1=O	0.81	0.52

Next part
SMILES	KCNQ2 enhance	KCNQ2 enhance baseline
O=C1Nc2cc(Cl)c(Cl)cc2N(O)N1c1ccc(Cl)cc1	0.59	0.34
CCOc1ccc(N2C(=O)C3ON(c4ccccc4)C(c4cccs4)C3C2=O)cc1 (stereo not drawn)	0.7	-1.9
COc1ccc(N(CC(=O)Nc2nc3ccc(C)cc3s2)S(=O)(=O)c2c(C)nn(C)c2C)cc1	0.31	-0.46
COc1ccccc1NC(=O)Nc1nc(CC(=O)Nc2cc(F)ccc2F)cs1	0.5	0.26
O=C(Nc1ccc(N2CCOCC2)cc1)C1CCN(C(=O)OCc2ccccc2)CC1	0.44	-1
COc1ccc(CN2C(=O)CSC2c2ccccn2)cc1 (stereo not drawn)	0.18	-1.1
Cc1ccc2c(c1)c1c3n2CCN(C=O)C3CCC1 (stereo not drawn)	0.02	0.11
O=C(CC1C(=O)NCCN1Cc1cccc(Oc2ccccc2)c1)NCc1cccnc1 (stereo not drawn)	0.7	-1.1
CCc1ccc(NC(=O)CCNS(=O)(=O)c2cccc3nsnc23)cc1	0.72	-0.98
O=C(C(c1ccccc1)c1ccccc1)N1CCN(Cc2ccc(Br)cc2)CC1	0.09	0.56
O=C1N(Nc2ccccc2)C(c2ccc(Br)cc2)C12CCCCC2 (stereo not drawn)	2	3.4
Cc1cccc(NC(=O)CC2S/C(=N/c3nccs3)N(C)C2=O)c1 (stereo not drawn)	0.55	-0.67
CCN(CC)c1ncn(Cc2c(Cl)cccc2Cl)c2ncnc1-2	0.02	-0.02
CC(C)(C)c1ccc(C(=O)NNC(=O)c2ccncc2)cc1	0.69	-0.59
C[C@]12CC(O)C3C(CCC4=CC(=O)CC[C@@]43C)C1CCC2c1csc(-c2ccccc2)n1 (stereo partly drawn)	0.95	-0.25
CCCCC(c1nnnn1CS(=O)(=O)c1ccc(C)cc1)N1CCC(C(N)=O)CC1 (stereo not drawn)	1.8	-0.03
CCCCn1c(N)c(N(CC(C)C)C(=O)CSc2n[nH]c(-c3ccc(C)cc3)n2)c(=O)[nH]c1=O	0.47	0.74
CN(C)Cc1c(C(=O)N/N=C/c2ccccc2OCc2ccc(F)cc2)nnn1-c1nonc1N	0.76	-0.15
CCOC(=O)c1cnc(NCc2ccccc2)nc1C	1.6	1.4
Cc1noc2ncnc(Oc3ccc(Cl)cc3Cl)c12	3.2	4.8
Cc1cc2nnc(SCC(=O)Nc3cc(S(=O)(=O)N4CCOCC4)ccc3Cl)n2c2ccccc12	1.2	0
Cc1cc(C)c(C)c(S(=O)(=O)NNC(=O)c2cccc(S(=O)(=O)N3CCOCC3)c2)c1C	0.42	0.48
Cn1c(-c2sc3cc(C(F)(F)F)cnc3c2-c2cccnc2)n[nH]c1=S	0.39	0.17
COCCNc1nc(NCc2ccccc2)c2cnn(C)c2n1	1.3	-0.51
C/C=C\C(=O)Nc1cccc(C2=NOC3(C2)C[C@@H](C(N)=O)N(C(=O)c2ccc(Cl)cc2)C3)c1 (stereo partly drawn)	0.52	-0.74

Going on with the list:
SMILES	KCNQ2 enhance	KCNQ2 enhance baseline
COc1ccc(CCNC(=O)CSc2nc(-c3ccco3)cc(C(F)(F)F)n2)cc1OC	0.16	0.07
CCOC(=O)N/N=C/c1ccc(OC)c(O)c1	1.5	-0.13
Cc1onc(-c2c(Cl)cccc2Cl)c1CO/N=C(\C#N)c1c(Cl)cccc1Cl	-5.5	.
CCOc1ccccc1CNCc1ccc(F)cc1	1.6	1
CCOC(=O)C1=C(COC(=O)/C=C/c2cc(Br)ccc2F)NC(=O)NC1C (stereo not drawn)	0.26	-1.3
COc1ccc(C(=O)NC2CCCCCC2)cc1S(=O)(=O)N1CCCC1	1	0
Cc1ccccc1NC(=S)NCc1ccc(Cl)cc1	0.45	-1.9
O=C(NNS(=O)(=O)c1ccccc1)c1ccc(O)cc1	1.2	-0.04
CCOc1cc(/C=N\NC(=O)CC(=O)NCCc2ccccc2)ccc1O	2.1	-2.6
O=C(O)CSc1ncccn1	1.1	0.71
COc1ccc(S(=O)(=O)Nc2cccnc2)cc1	0.03	0.69

Some of the compounds tested (hit frequency here may not be typical).
